YB-1 expr inh: inhibitors of YB-1 gene expression, primary screen, cell-based, fluorescence; U2OS, qRT-PCR YB-1 vs CDIP delta delta Cp, 16 h; stronger effect = higher value; zero = DMSO, each unit about twofold; AID 434959, 2010; actives 0.37% (n = 30,000); delta delta Cp (YB-1 minus CDIP) (test concentration not listed);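 active = delta delta Cp rounded down to an integer at or above 3, about 3 SD of DMSO wells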;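 note: higher means less YB-1 transcript or more CDIP transcript relative to DMSO; stock transfer was 100 nL into about 100 µL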
Numbers without * were called inactive.

SMILES	YB-1 expr inh
O=C(N/N=C/c1ccco1)c1ccccn1	-0.76
C[C@H](CO)N1C[C@H](C)[C@H](CN(C)Cc2cccc(C(F)(F)F)c2)Oc2ncc(C#Cc3ccccc3)cc2C1=O	0.42
COc1ccc(/C=N/NC(=O)CCCCCCC(=O)O)c(O)c1	-0.28
C[C@H](CO)N1C[C@H](C)[C@H](CN(C)C(=O)Nc2ccc(F)cc2)Oc2ncc(C#Cc3ccc(C(F)(F)F)cc3)cc2C1=O	0.17
C=CCNC(=O)[C@H]1[C@@H]2C(=O)O[C@@H](c3ccccc3)[C@@H](c3ccccc3)N2[C@@H](c2ccc(OCCO)cc2)[C@]12C(=O)Nc1ccc(C#CC3=CCCCC3)cc12	-0.4
C[C@H](CO)N1C[C@H](C)[C@H](CN(C)Cc2ccc(F)cc2)Oc2ncc(-c3cc4ccccc4o3)cc2C1=O	0.3
COc1ccc(S(=O)(=O)N(C)C[C@@H]2Oc3ncc(-c4cccc(C(F)(F)F)c4)cc3C(=O)N([C@H](C)CO)C[C@@H]2C)cc1	-0.34
COc1cccc(S(=O)(=O)N(C)C[C@@H]2Oc3ncc(C#CCN(C)C)cc3C(=O)N([C@H](C)CO)C[C@@H]2C)c1	0.023
C[C@H]1CN([C@@H](C)CO)C(=O)CCCn2nncc2CO[C@@H]1CN(C)S(=O)(=O)c1ccc(Oc2ccccc2)cc1	-0.58
CCOC(=O)N(C)C[C@@H]1OCc2cnnn2CCCC(=O)N([C@H](C)CO)C[C@@H]1C	0.37
O=C1c2ccccc2[C@@]2(Cc3ccccc3N(Cc3ccccc3)C2=O)[C@H](c2ccc(CO)cc2)N1C1CCCCC1	-0.012
C[C@@H]1CN([C@@H](C)CO)C(=O)CCCn2nncc2CO[C@@H]1CN(C)Cc1ccccc1C(F)(F)F	-0.28
O=C1O[C@H](c2ccccc2)[C@H](c2ccccc2)N2[C@H]1[C@@H](C(=O)N1CCN(c3ncccn3)CC1)[C@]1(C(=O)Nc3ccccc31)[C@H]2c1ccc(O)cc1	-0.18
C[C@H](CO)N1C[C@H](C)[C@H](CN(C)Cc2cccc(C(=O)O)c2)OCc2cnnn2CCCC1=O	-0.097
C[C@@H]1CN([C@H](C)CO)C(=O)CCCn2cc(nn2)CO[C@H]1CN(C)S(=O)(=O)c1ccc2ccccc2c1	-0.27
O=C(CCCCCC(=O)N/N=C/c1ccc([N+](=O)[O-])s1)NO	-0.63
C[C@@H]1CN([C@@H](C)CO)C(=O)CCCn2cc(nn2)CO[C@@H]1CN(C)Cc1ccc(O)cc1	-0.15
CCc1cccc(NC(=O)O[C@H]2[C@H](OC(=O)Nc3ccccc3)[C@@H](OC(=O)Nc3ccccc3)[C@@H](OC)O[C@@H]2CO)c1	0.16
O=C(CCCCCCC(=O)Nc1ccccc1O)N/N=C/c1ccc2c(c1)CCO2	-0.47
C[C@H]1CN([C@@H](C)CO)C(=O)CCCn2nncc2CO[C@@H]1CN(C)Cc1ccc(C(F)(F)F)cc1	-0.15
C[C@@H]1CN([C@@H](C)CO)C(=O)CCCn2cc(nn2)CO[C@@H]1CN(C)C(=O)Cc1ccccc1	-0.56
C[C@H](CO)N1C[C@H](C)[C@H](CN(C)Cc2ccc(C(=O)O)cc2)OCc2cn(nn2)CCCC1=O	0.085
CCCN(C)C[C@@H]1Oc2ncc(-c3ccc(OC)cc3)cc2C(=O)N([C@H](C)CO)C[C@@H]1C	0.22
C[C@H](CO)N1C[C@H](C)[C@H](CN(C)C(=O)CCC(F)(F)F)OCc2cn(nn2)CCCC1=O	-0.12
O=C(Nc1ccccc1)C1=C[C@H](c2ccc3c(c2)Cc2ccccc2-3)C[C@H](OCc2ccc(CO)cc2)O1	0.94
C[C@H](CO)N1C[C@H](C)[C@H](CN(C)S(=O)(=O)c2ccccc2F)OCc2cn(nn2)CCCC1=O	-0.35
O=C(O)c1cccc(/C=N/NC(=O)c2ccccc2O)c1	0.17
O=C(CCCCC(=O)N/N=C/c1cccc(O)c1)NO	0.55
C=CCN1C(=O)[C@]2(CCS(=O)(=O)c3ccccc3)N=C(c3ccc(OCCCO)cc3)O[C@@H]2c2ccccc21	-0.071
COC(=O)CCCCCCC(=O)N/N=C/CC1=C(C)CCCC1(C)C	0.00056
COc1ccc(S(=O)(=O)N(C)C[C@@H]2OCc3cnnn3CCCC(=O)N([C@H](C)CO)C[C@@H]2C)cc1	0.78
C=CCN1C(=O)[C@]2(O[C@H](CCn3cc(CCO)nn3)[C@@H]([Si](C)(C)c3ccc(OC)cc3)[C@@H]2C)c2cc(N3CCOC3=O)ccc21	-0.0031
CC(C)OC(=O)N(C)C[C@H]1OCc2cn(nn2)CCCC(=O)N([C@@H](C)CO)C[C@@H]1C	-0.33
C[C@H](CO)N1C[C@H](C)[C@H](CN(C)C(=O)NC2CCCC2)Oc2ncc(-c3cc4ccccc4o3)cc2C1=O	0.037
COc1cc(Cl)c(/C=N/NC(=O)CCCCCCC(=O)Nc2ccccc2O)c(Cl)c1OC	0.39
COc1ccc([Si](C)(C)[C@@H]2[C@@H](CCn3cc(CCO)nn3)O[C@]3(C(=O)N(c4ccccc4)c4ccccc43)[C@H]2C)cc1	-0.61

Filtered by structure, the compounds so far with a COOH group
SMILES	YB-1 expr inh
COc1ccc(/C=N/NC(=O)CCCCCCC(=O)O)c(O)c1	-0.28
C[C@H](CO)N1C[C@H](C)[C@H](CN(C)Cc2cccc(C(=O)O)c2)OCc2cnnn2CCCC1=O	-0.097
C[C@H](CO)N1C[C@H](C)[C@H](CN(C)Cc2ccc(C(=O)O)cc2)OCc2cn(nn2)CCCC1=O	0.085
O=C(O)c1cccc(/C=N/NC(=O)c2ccccc2O)c1	0.17

Random excerpt: 2 records from the list
SMILES	YB-1 expr inh
O=C(O)c1cccc(/C=N/NC(=O)c2ccccc2O)c1	0.17
COC(=O)CCCCCCC(=O)N/N=C/CC1=C(C)CCCC1(C)C	0.00056

(next part)
SMILES	YB-1 expr inh
[N-]=[N+]=NCc1ccccc1C[C@]1(C(=O)N2CCCCC2)COC(c2ccc(OCCCO)cc2)=N1	-0.2
O=C(CCCCCCC(=O)Nc1ccccc1O)N/N=C/c1ccncc1Br	0.27
COCCCNC(=O)[C@@]1(CCS(=O)(=O)c2ccccc2)COC(c2ccc(OCCCO)cc2)=N1	0.16
CCOc1cccc(/C=N/NC(=O)CCCCC(=O)NO)c1OCC	0.97
C[C@H]1CN([C@@H](C)CO)C(=O)CCCn2nncc2CO[C@H]1CN(C)CC1CCCC1	-0.88
C[C@H](CO)N1C[C@H](C)[C@H](CN(C)C(=O)Nc2cccc3ccccc23)Oc2ncc(C#Cc3cccc(F)c3)cc2C1=O	-0.059
O=C(N/N=C/c1cc(O)ccc1Br)c1ccccn1	0.0031
C[C@@H]1CN([C@@H](C)CO)C(=O)CCCn2nncc2CO[C@H]1CN(C)Cc1ccc(Cl)c(Cl)c1	-0.36
O=C(NCc1ccccc1)C1=C[C@@H](c2cccs2)C[C@@H](OCc2ccc(CO)cc2)O1	-0.2
Cc1ncc(CO)c(/C=N/NC(=O)c2ccccn2)c1O	0.13
C[C@H]1CN([C@@H](C)CO)C(=O)CCCn2cc(nn2)CO[C@H]1CN(C)C(=O)CCC(F)(F)F	-0.14
C[C@H](CO)N1C[C@H](C)[C@H](CN(C)S(C)(=O)=O)Oc2ncc(C#Cc3ccc(F)cc3)cc2C1=O	0.38
COCCOC(=O)N1C(=O)[C@@]2(c3cc(C#Cc4ccc(OC)cc4)ccc31)[C@H](c1ccccc1OCCO)N1[C@H](c3ccccc3)[C@H](c3ccccc3)OC(=O)[C@H]1[C@@H]2C(=O)N1CCN(c2ncccn2)CC1	0.08
C[C@H](CO)N1C[C@H](C)[C@@H](CN(C)C(=O)Nc2ccc(C(C)(C)C)cc2)OCc2cn(nn2)CCCC1=O	0.11
O=C(CCCCCCC(=O)Nc1ccccc1O)N/N=C/c1cc(O)ccc1O	0.061
O=C1O[C@@H](c2ccccc2)[C@@H](c2ccccc2)N2[C@@H](c3ccc(OCCO)cc3)[C@]3(C(=O)Nc4ccccc43)[C@@H](C(=O)O)[C@H]12	0.26
COc1ccc(S(=O)(=O)N(C)C[C@@H]2OCc3cn(nn3)CCCC(=O)N([C@@H](C)CO)C[C@H]2C)cc1	-0.4
C[C@H]1CN([C@@H](C)CO)C(=O)CCCn2nncc2CO[C@H]1CN(C)C(=O)CCC(F)(F)F	-0.14
Cn1cc(/C=N/NC(=O)c2cccc(C(=O)NO)c2)c2ccccc21	-0.62
C[C@H]1CN([C@@H](C)CO)C(=O)CCCn2nncc2CO[C@@H]1CN(C)C(=O)c1ccc2ccn(C)c2c1	-0.65
C[C@@H]1CN([C@@H](C)CO)C(=O)CCCn2cc(nn2)CO[C@H]1CN(C)Cc1ccccc1C(F)(F)F	0.0056
C[C@H]1CN([C@@H](C)CO)C(=O)CCCn2cc(nn2)CO[C@H]1CN(C)Cc1ccc2c(c1)OCCO2	-0.21
CNC[C@@H]1Oc2ncc(-c3cccc(F)c3)cc2C(=O)N([C@H](C)CO)C[C@@H]1C	-0.3
O=C(N/N=C/c1cc(O)ccc1O)c1ccccc1O	0.23
COc1ccccc1NC(=O)N(C)C[C@@H]1OCc2cn(nn2)CCCC(=O)N([C@@H](C)CO)C[C@H]1C	-18
COCCCNC(=O)[C@@]1(Cc2ccccc2N=[N+]=[N-])N=C(c2ccc(OCCCO)cc2)O[C@H]1c1ccccc1	-0.67
C[C@@H]1CN([C@@H](C)CO)C(=O)CCCn2cc(nn2)CO[C@@H]1CN(C)Cc1ccc2c(c1)OCO2	-0.032
CCOC(=O)N(C)C[C@H]1OCc2cn(nn2)CCCC(=O)N([C@@H](C)CO)C[C@@H]1C	0.016
C[C@H](CO)N1C[C@H](C)[C@H](CN(C)S(=O)(=O)c2cccc(F)c2)Oc2ncc(C#CCN(C)C)cc2C1=O	-0.091
COc1ccc(-c2cnc3c(c2)C(=O)N([C@H](C)CO)C[C@H](C)[C@H](CN(C)S(=O)(=O)c2cccc(OC)c2)O3)cc1	0.27
CCCN(C)C[C@@H]1Oc2ncc(-c3ccc(F)cc3)cc2C(=O)N([C@H](C)CO)C[C@@H]1C	-0.11
C[C@H](CO)N1C[C@H](C)[C@H](CN(C)C)Oc2ncc(Br)cc2C1=O	0.54
O=C(NO)c1ccc(C(=O)N/N=C/c2ccoc2)cc1	0.26
C[C@H]1CN([C@@H](C)CO)C(=O)CCCn2nncc2CO[C@H]1CN(C)C(=O)Nc1ccc(C(C)(C)C)cc1	0.1
C[C@H](CO)N1C[C@H](C)[C@@H](CN(C)Cc2cccnc2)OCc2cnnn2CCCC1=O	0.35
C[C@H](CO)N1C[C@H](C)[C@@H](CN(C)S(=O)(=O)c2ccccc2F)OCc2cnnn2CCCC1=O	0.27
COc1ccc(CN(C)C[C@H]2OCc3cnnn3CCCC(=O)N([C@H](C)CO)C[C@H]2C)cc1	-0.33
O=C(N/N=C/c1ccccc1)c1ccccn1	-0.28
CN(C)CCCCCCNC(=O)[C@@H]1C[C@@H]2C(=O)NCC(=O)N2[C@@H]1c1cccc(OCCO)c1	-0.31
CC(C)OC(=O)N(C)C[C@H]1OCc2cn(nn2)CCCC(=O)N([C@@H](C)CO)C[C@H]1C	0.12
COCCOC(=O)N1C(=O)[C@@]2(c3ccccc31)[C@H](c1ccccc1OCCO)N1[C@H](c3ccccc3)[C@H](c3ccccc3)OC(=O)[C@H]1[C@@H]2C(=O)N1CCCCCCC1	-0.31
[N-]=[N+]=NCc1ccccc1C[C@]1(C(=O)NCCN2CCOCC2)COC(c2ccc(OCCCO)cc2)=N1	0.14
C[C@H]1CN([C@@H](C)CO)C(=O)CCCn2cc(nn2)CO[C@H]1CN(C)S(=O)(=O)c1ccc(Oc2ccccc2)nc1	0.027
Cc1cccc(S(=O)(=O)N(C)C[C@@H]2OCc3cn(nn3)CCCC(=O)N([C@@H](C)CO)C[C@H]2C)c1	-0.54
O=C(CCCCCCC(=O)Nc1ccccc1O)N/N=C/c1cn(Cc2ccccc2)c2ccccc12	-0.35
COc1ccc(S(=O)(=O)N(C)C[C@@H]2OCc3cn(nn3)CCCC(=O)N([C@H](C)CO)C[C@H]2C)cc1	-0.51
C[C@H](CO)N1C[C@H](C)[C@@H](CN(C)Cc2cccc3c2OCCCO3)OCc2cn(nn2)CCCC1=O	0.019
C=CCNC(=O)[C@@H]1[C@H]2C(=O)O[C@H](c3ccccc3)[C@H](c3ccccc3)N2[C@H](c2ccc(OCCO)cc2)[C@@]12C(=O)N(C(=O)OCCOC)c1ccc(C#Cc3ccc(OC)cc3)cc12	0.59
COCCOC(=O)N1C(=O)[C@@]2(c3cc(C#CCC(C(=O)OC)C(=O)OC)ccc31)[C@H](C(=O)NC[C@H](O)c1ccccc1)[C@H]1C(=O)O[C@H](c3ccccc3)[C@H](c3ccccc3)N1[C@@H]2c1ccc(O)cc1	0.0019
COc1cccc(S(=O)(=O)N(C)C[C@@H]2Oc3ncc(C#Cc4ccc(C(F)(F)F)cc4)cc3C(=O)N([C@H](C)CO)C[C@@H]2C)c1	0.71
C[C@@H]1CN([C@@H](C)CO)C(=O)CCCn2cc(nn2)CO[C@@H]1CN(C)CC1CCCCC1	0.18
CCCN(C)C[C@@H]1OCc2cn(nn2)CCCC(=O)N([C@@H](C)CO)C[C@@H]1C	0.28
COC(=O)c1ccc([C@@H]2C=C(C(=O)NCc3ccccc3)O[C@H](OCCCCO)C2)cc1	-0.017

Three compounds already listed, sorted by formula weight, descending:
SMILES	YB-1 expr inh
O=C(CCCCCCC(=O)Nc1ccccc1O)N/N=C/c1cc(O)ccc1O	0.061
COC(=O)CCCCCCC(=O)N/N=C/CC1=C(C)CCCC1(C)C	0.00056
O=C(CCCCCC(=O)N/N=C/c1ccc([N+](=O)[O-])s1)NO	-0.63

Screening data as filed in PubChem.

A portion of the library; rates above refer to the full screens.
